# Compound activity (PubChem BioAssay)
# SmPrx2 inh: Schistosoma mansoni Prx2 inhibition | Potency, µM | actives 0.07% (n = 65,000) | S. mansoni Prx2 activity coupled to TGR/GSH (TGR is thioredoxin glutathione reductase), NADPH fluorescence loss, qHTS; some inactives read as strong as hits | AID 448; active means full or partial inhibition curve with a strong effect at the top dose; inconclusive means weaker partial or single-point curve; inactive means no accepted curve; note: series up to 57 µM; many of its hits are not listed in these tables
#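 Prx2 inhibition was measured as reduced NADPH consumption when electrons flowed from NADPH through TGR and glutathione to Prx2 and H2O2. Plates were read kinetically over 8 min; enzyme reagents were held at 4 deg C during dispensing.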
# LT uptake inh: anthrax lethal toxin internalization inhibition; Cells, anthrax lethal toxin internalization, FRET ratio (460/530); Potency, µM (top dose mostly 40 µM), without a hit: top-dose activity change, negative = inhibition, actives largely listed as inhibitors; actives 0.67% (n = 70,000); AID 912; active = well fitted falling ratio curve with the 530 nm signal flat; inconclusive = other ratio curves, or a change in one channel alone; inactive = flat curves in the ratio and both channels; the % refers to the ratio; note: % is set by controls: 0 for no effect and ±100 for the full control effect; nearly all actives have a fitted effect of over 50% in size; tested in ME-180 cells; beta-lactamase reporter
# Active calls of the source: *; u = inconclusive; x = not tested or not shown; [ ] = remark or other dose. Potency is the fitted concentration of half-maximal effect. These rows are one share of the data; count on the stated rates, not on these rows.
SMILES,SmPrx2 inh,LT uptake inh
CC(C)c1nnc(NC(=O)CSc2nc3ccccc3s2)s1,>57,-4.0%
Cc1ccc(N(Cc2cc(=O)[nH]c3ccccc23)C(=O)c2ccco2)cc1,>57,-15.7%
COn1cnnc1-c1ccccc1,>57,x
CCCCc1ccc(CC(=O)O)cc1,>57,9.1%
Cc1onc(-c2ccccc2)c1C(=O)NC(C)C,>57,-4.9%
COc1ccc(-c2cc(N)n(S(=O)(=O)Cc3ccccc3)n2)c(OC)c1,>57,-3.1%
CSC1=NCCN1C(=O)C(C)(C)Oc1ccc(Cl)cc1,>57,2.6%
CCC(C)NC(=O)c1ccccc1C(=O)NC(C)CC (stereo not given),>57,-4.1%
COC(=O)c1[nH]c2ccc(F)cc2c1NC(=O)CCN1CCN(Cc2ccc3c(c2)OCO3)CC1,>57,-2.9%
CCCNC(=O)NCCc1c(C)[nH]c2ccccc12,>57,-4.5%
Cc1cc(C)cc(-c2nnc(SCC(=O)N3CCN(C(=O)c4ccco4)CC3)o2)c1,>57,-2.0%
O=C(C(Cc1ccccc1)n1cccc1)N1CCN(Cc2ccccc2)CC1 (stereo not given),>57,-26.1%
C=CCOc1ccc(C2NC(=O)NC(C)=C2C(=O)OC)cc1 (stereo not given),>57,20.5%
Cc1cccc(C(=O)O)c1[N+](=O)[O-],x,4.6%
CCOC(=O)c1[nH]c(C)c(/C(O)=C2\C(=O)C(=O)N(CCCN3CCOCC3)C2c2cccnc2)c1C (stereo not given),>57,2.6%
O=C(NCCSCc1ccco1)Nc1ccc(Cl)cc1,>57,-11.6%
O=C(CSc1nnnn1-c1ccc2c(c1)OCCO2)Nc1nc2c(s1)CCCC2,>57,-0.8%
O=C1C(Cl)=C(N2CCOCC2)C(=O)N1c1cccc(Cl)c1,x,-9.9%
Cc1cc(CN2CCCCC2)c(O)c(CN2CCCCC2)c1,>57,-8.9%[8 µM]
CCC(C)n1[nH]c(=O)c2c(C)cc(C)nc21 (stereo not given),>57,-9.7%
Nc1nc(-c2ccco2)nn1C(=O)CCc1ccccc1,>57,9.0%
CC(C)C(c1nnnn1C(C)(C)C)N1CCN(c2cccc(Cl)c2)CC1 (stereo not given),>57,-9.0%
COc1cccc(NC2c3ccccc3C(=O)N2Cc2ccco2)c1 (stereo not given),>57,2.6%
COC(=O)c1ccccc1NC(=O)C1CCCN(S(=O)(=O)c2ccc(F)cc2)C1 (stereo not given),>57,0.7%
COc1ccccc1N1CCN(C2=NS(=O)(=O)c3ccccc32)CC1,>57,-24.4%
# Next section.
SMILES,SmPrx2 inh,LT uptake inh
c1ccc(-c2cn3nc(-c4ccccc4)sc3n2)cc1,x,-14.2%
CCOc1ccc(C2CC(c3ccccc3C)n3nc(N)nc3N2)cc1 (stereo not given),>57,4.6%
C/C(Cl)=C\Cn1c(Nc2cccc(C)c2)nc2c1c(=O)n(C)c(=O)n2C,>57,-6.7%
CC1CN(S(=O)(=O)c2ccc(NC(=O)CCN3C(=O)c4ccccc4C3=O)cc2)CC(C)O1 (stereo not given),>57,0.6%
O=C1CC2(CCCCC2)Oc2ccc(OCC(=O)N3CCOCC3)cc21,>57,13.8%
CC(=C1C(=O)c2ccccc2C1=O)N1CCC(C(N)=O)(N2CCCCC2)CC1,>57,-4.4%
Cc1c2c(nc3c(C(=O)NC4CCCC4)cnn13)CCCC2,>57,x
CC(=O)Nc1cc(C(=O)O)ccc1S(=O)(=O)c1ccc(C)cc1,>57,-4.2%
CN(C)S(=O)(=O)c1ccc(C(=O)Nc2ccc(CN3CCCC3)cc2)cc1,>57,1.2%
C[C@]12CC[C@H]3c4ccc(OC[C@H]5CO5)cc4CC[C@H]3[C@H]1CC[C@@H]2O,x,u
CC(C)Nc1ccccc1,x,u
COC(=O)c1sc(NC(=O)c2ccc(Cn3cc(Cl)cn3)o2)c(C#N)c1C,>57,-16.3%
CN(Cc1ccco1)c1ncnc2ccc(-c3ccccc3C#N)cc12,>57,u
O=C(c1cccn2c(=O)c3ccccc3nc12)N1CCN(Cc2ccc3c(c2)OCO3)CC1,>57,17.3%
COC(=O)c1cc(NC(=O)c2nccnc2C(=O)O)cc(C(=O)OC)c1,>57,1.0%
Nc1nc(-c2cccnc2)nn1S(=O)(=O)c1ccccc1,>57,1.0%
O=C1NO[C@@H]2CN[C@@H](C(=O)O)[C@H]12,x,-3.3%
CCC(C)(C)NC(=O)C(c1cccn1C)N(C(=O)Cn1nnc2ccccc21)c1ccccc1OC (stereo not given),>57,2.1%
O=C(Nc1ccc(N2CCCCC2)cc1)c1cccnc1,>57,-4.6%
CC(=O)Nc1ccc(OCC(O)Cn2nc(C)nc2C)cc1 (stereo not given),>57,14.3%
O=C(NC1=NCCS1)c1ccc(Cl)s1,>57,-15.0%
COc1ccc(-c2noc(CSc3nnc(-c4ccncc4)n3-c3ccc(F)cc3)n2)cc1OC,>57,u
Cc1cc(C)n(-c2cc(-c3ccccc3)nc(C)n2)n1,>57,8.1%
O=C(Nc1ccccc1)c1cnc2n(c1=O)CCS2,>57,-5.9%
COc1nc(-c2ccc(Cl)cc2)ccc1-c1noc(-c2ccco2)n1,>57,-3.9%
# (cont.)
SMILES,SmPrx2 inh,LT uptake inh
Cc1ccc2[nH]c3c(c2c1)CN(C(=O)CN1CCN(Cc2ccc4c(c2)OCO4)CC1)CC3,>57,-21.4%
N#CCSc1nc2cc(C(=O)N3CCC(C(N)=O)CC3)ccc2c2nc3ccccc3n12,>57,u
O=C(Cn1c2c(c(-c3ccccc3Cl)cc1=O)CCC2)N1CCC2(CC1)OCCO2,>57,-9.6%
Cc1c(C(=O)N2CCCCC2)oc2ccc(S(=O)(=O)N3CC(C)CC(C)C3)cc12 (stereo not given),>57,-16.0%
Cc1ccc2oc(=O)c3cc(C(=O)N4CCN(C(=O)c5ccco5)CC4)sc3c2c1,>57,-4.1%
O=C(c1cccc(F)c1)N1CCC2(CC1)CCN(c1ccccn1)CC2,>57,-20.8%
CCOc1c(CNCCNC(=O)c2nonc2N)cccc1OC,>57,x
Cc1ccc(S(=O)(=O)CCC(=O)c2ccc(O)cc2O)cc1,x,12.6µM*
COc1ccc(S(=O)(=O)Cc2ccc(C(=O)N3CCC(C(N)=O)CC3)o2)cc1,>57,8.7%
COC(=O)c1cc(OC)c(OC)cc1NC(=O)c1ccco1,>57,-19.2%
CCn1c(=O)n(CC(=O)NCc2ccco2)c(=O)c2ccccc21,>57,0.1%
COc1ccc(OC2C=CC(c3ccccc3)OC2CO)c(C(C)=O)c1 (stereo not given),x,-7.9%[8 µM]
COCCn1c(=O)c(-c2cccs2)nc2cnc(Oc3ccc(OC)cc3)nc21,>57,u
Cc1ccc(CNC(=O)Cn2c(=O)oc3ccccc32)o1,>57,12.3%
COc1cc(OC)c(C2C(C(=O)Nc3ccc(C)cc3C)=C(C)Nc3ncnn32)cc1OC (stereo not given),>57,-7.1%
CC(=NCCC1=CCCCC1)c1c(O)n(C)c(=O)n(C)c1=O,>57,-12.1%
COCCn1c(=O)c(-c2ccc(Cl)cc2)nc2cnc(Oc3ccc(OC)cc3)nc21,>57,-13.1%
COc1ccc(C2CC(=O)c3cnc(NC(=O)c4ccccc4)nc3C2)c(OC)c1 (stereo not given),>57,x
Cc1occc1C(=O)Nc1sc2c(c1C(N)=O)CCCCC2,>57,6.2%
COCC(=O)N1CCC2(CC1)CCN(C(c1ccccc1)c1ccccc1)CC2,>57,4.3%
CCCS(=O)(=O)N1CCC(C(=O)NCCCN2CCCC2=O)CC1,>57,2.5%
COCCn1c(=O)cnc2cnc(OC)nc21,>57,-0.6%
Cc1cccc(NC(=O)Cn2c(=O)n3nc(CCn4nc(C)cc4C)nc3c3ccccc32)c1,>57,2.3%
O=C1CCc2cc(S(=O)(=O)NC(Cc3ccccc3)C(=O)NC3CCCCC3)ccc2N1 (stereo not given),>57,16.1%
O=S(=O)(NCc1ccco1)c1ccc2c(c1)Cc1ccccc1-2,>57,11.5%

# Ordered by molar mass (lowest first): some entries from above.
SMILES,SmPrx2 inh,LT uptake inh
COCCn1c(=O)cnc2cnc(OC)nc21,>57,-0.6%
Cc1ccc(CNC(=O)Cn2c(=O)oc3ccccc32)o1,>57,12.3%
CC(=NCCC1=CCCCC1)c1c(O)n(C)c(=O)n(C)c1=O,>57,-12.1%
Cc1occc1C(=O)Nc1sc2c(c1C(N)=O)CCCCC2,>57,6.2%
Cc1ccc(S(=O)(=O)CCC(=O)c2ccc(O)cc2O)cc1,x,12.6µM*
O=S(=O)(NCc1ccco1)c1ccc2c(c1)Cc1ccccc1-2,>57,11.5%
CCn1c(=O)n(CC(=O)NCc2ccco2)c(=O)c2ccccc21,>57,0.1%
CCOc1c(CNCCNC(=O)c2nonc2N)cccc1OC,>57,x
O=C(c1cccc(F)c1)N1CCC2(CC1)CCN(c1ccccn1)CC2,>57,-20.8%
COc1ccc(OC2C=CC(c3ccccc3)OC2CO)c(C(C)=O)c1 (stereo not given),x,-7.9%[8 µM]
CCCS(=O)(=O)N1CCC(C(=O)NCCCN2CCCC2=O)CC1,>57,2.5%
COCC(=O)N1CCC2(CC1)CCN(C(c1ccccc1)c1ccccc1)CC2,>57,4.3%
COc1ccc(C2CC(=O)c3cnc(NC(=O)c4ccccc4)nc3C2)c(OC)c1 (stereo not given),>57,x
COc1ccc(S(=O)(=O)Cc2ccc(C(=O)N3CCC(C(N)=O)CC3)o2)cc1,>57,8.7%
COCCn1c(=O)c(-c2cccs2)nc2cnc(Oc3ccc(OC)cc3)nc21,>57,u
Cc1c(C(=O)N2CCCCC2)oc2ccc(S(=O)(=O)N3CC(C)CC(C)C3)cc12 (stereo not given),>57,-16.0%
Cc1ccc2oc(=O)c3cc(C(=O)N4CCN(C(=O)c5ccco5)CC4)sc3c2c1,>57,-4.1%
O=C(Cn1c2c(c(-c3ccccc3Cl)cc1=O)CCC2)N1CCC2(CC1)OCCO2,>57,-9.6%
COCCn1c(=O)c(-c2ccc(Cl)cc2)nc2cnc(Oc3ccc(OC)cc3)nc21,>57,-13.1%
N#CCSc1nc2cc(C(=O)N3CCC(C(N)=O)CC3)ccc2c2nc3ccccc3n12,>57,u
Cc1ccc2[nH]c3c(c2c1)CN(C(=O)CN1CCN(Cc2ccc4c(c2)OCO4)CC1)CC3,>57,-21.4%
COc1cc(OC)c(C2C(C(=O)Nc3ccc(C)cc3C)=C(C)Nc3ncnn32)cc1OC (stereo not given),>57,-7.1%
Cc1cccc(NC(=O)Cn2c(=O)n3nc(CCn4nc(C)cc4C)nc3c3ccccc32)c1,>57,2.3%

# Following part:
SMILES,SmPrx2 inh,LT uptake inh
CC(Oc1ccc(Cl)cc1Cl)C(=O)NCc1ccncc1 (stereo not given),>57,u
Cc1nn(-c2ccccc2)c(Cl)c1C(=O)Nc1c(C)n(C)n(-c2ccccc2)c1=O,>57,6.5%
N=C(N)c1ccccc1,>57,-2.5%
Cc1cc2ccccc2c[n+]1CC(O)C[n+]1cc2ccccc2cc1C,>57,10.1%[8 µM]
CCc1cc(C=C(Cl)Cl)oc(=O)c1C,>57,u
CC(C)OC(=O)C1C2C=CC3(CN(Cc4cccs4)C(=O)C13)O2 (stereo not given),>57,4.8%
Cc1nnc(SCCn2c(N3CCCCC3)nc3c2c(=O)n(C)c(=O)n3C)s1,>57,-10.0%
Cc1ccc(-n2c(=O)[nH]cc(C(=O)Nc3ccc4c(c3)OCCO4)c2=O)cc1,>57,u
O=C(CN1CCN(S(=O)(=O)c2ccc(F)cc2)CC1)Nc1ccccc1F,>57,12.7%
Cc1cccc(CNc2ncncc2-c2ccccc2CN(C)C)c1,>57,-6.2%
CCc1cccc(CC)c1N(COC)C(=O)Cn1ccccc1=N,>57,1.2%
O=C(CN(Cc1ccco1)C(=O)CNS(=O)(=O)c1ccc(F)cc1)NCc1ccc(F)cc1,>57,-11.6%
O=C(COC(=O)C1CC(=O)N(Cc2ccco2)C1)c1ccc(OC(=O)c2ccco2)cc1 (stereo not given),>57,-3.3%
O=C(Nc1cccc(F)c1)N1CCCC2(CCN(C(=O)Oc3ccccc3)CC2)C1,>57,u
CCCCN(C)C(=O)c1cn(CC)c2ccc(S(=O)(=O)N(C)C)cc2c1=O,>57,0.6%
Cc1cc(C)n2nc(C(=O)Nc3ccc4c(c3)OCO4)nc2n1,>57,-24.6%
Cc1ccc2occ(C(c3nnnn3C3CCCC3)N3CCN(C(=O)c4ccco4)CC3)c(=O)c2c1 (stereo not given),u,u
COc1ccc(S(=O)(=O)Nc2c(C)ccc3nsnc23)cc1OC,>57,6.5%
